MgrA DNA FP: modulators of Staphylococcus aureus MgrA DNA binding; fluorescence polarization; inhibition, %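 (about 10 µg/mL by stock and volumes)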; actives 0.13% (n = 84,000);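 active means above 50% in either of two replicates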;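 further: 0% = protein plus DNA without compound and 100% = DNA alone without protein; higher means less MgrA bound to DNA so lower polarization; one replicate is shown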
S aureus helic: S. aureus DNA helicase inhibition | purified S. aureus helicase, fluorescence unwinding assay; about half of the hits fall short of the stated cut | inhibition, %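 (tested at about 80 µM)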 | actives 0.05% (n = 120,000) | AID 485395;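 active means both duplicates at 50% or more, or one of them with a favoured structure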;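 further: 0% = mean of negative control wells and 100% = mean of positive control wells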
* marks the source's active call; other numbers are inactive results; · = not tested or not shown; & = joins results of further samples. This is a subset; the hit share may differ from the screen's.

MgrA DNA FP	S aureus helic	Structure
-0.4	-4.0	CC(C)n1nnnc1SCC(=O)c1ccc(F)cc1
·	16.0&-13.0	NC1=NC2(CCCCC2)n2c(nc3ccccc32)N1
·	-11.0	O=c1/c(=C/C2=Cc3ccccc3OC2)sc2nc3ccccc3n12
·	7.0	Cc1ccc(S(=O)(=O)/N=C(\NN(C)C)c2ccccc2)cc1
·	21.0	CCc1noc(C)c1C(=O)OCC(=O)Nc1ccc(NC(C)=O)cc1
2.1	3.0	N#CCC(=O)N/N=C/c1cc2ccccc2[nH]1
·	23.0	CCC(C)C(C(=O)O)N1C(=O)c2ccccc2C1=O (stereo not drawn)
·	-24.0	O=C(COC(=O)c1ccc2ccccc2n1)c1ccc(Cl)c(Cl)c1
·	-14.0	COC(=O)NNc1ncccc1C(F)(F)F
0.1	16.0	CCCC(c1nnnn1CC1CCCO1)N(Cc1cc2cc(C)cc(C)c2[nH]c1=O)C1CCCC1 (stereo not drawn)
5.8	1.0	O=C1c2ccccc2-c2nc3ccccc3c(=O)n21
·	-8.0	CCOc1ccc2nc(NC(=O)c3ccccc3OC)sc2c1
-1.6	-3.0	COC(=O)Cn1c2ccc(Cl)cc2c2nc3ccccc3nc21
·	28.0	O=C(CCn1cnc2onc(-c3ccc(F)cc3)c2c1=O)N1CCCc2ccccc21
-0.7	·	N#CCS(=O)(=O)c1ccc(F)cc1
1.8	0.0	O=C(c1ccc(S(=O)(=O)N2CCOCC2)cc1)n1nnc2ccccc21
·	-3.0	Oc1c(CN2CCOCC2)cc(Cl)c2cccnc12
-1.2	·	c1ccc(-c2nnc3n2N=C(c2cccs2)CS3)cc1
0.2	2.0	Clc1c(-c2nnc(-c3cccs3)o2)sc2ccccc12
·	-5.0	O=S1(=O)CC(c2ccccc2)CS(=O)(=O)C1CC1S(=O)(=O)CC(c2ccccc2)CS1(=O)=O (stereo not drawn)
2.6	15.0	COC(=O)Oc1cc2oc(=O)sc2cc1Cl
·	0.0	O=C(Cn1cnc2onc(-c3ccc(F)cc3)c2c1=O)NC1CCN(Cc2ccccc2)CC1
-1.9	4.0	c1ccc(CNCC2CC2)cc1
·	-133.0	Fc1ccc(Cn2c3ccccc3c3nn4cnnc4nc32)cc1
2.2	·	O=[N+]([O-])c1cccc(-c2cc(C(F)(F)F)n3nc(C4CC4)cc3n2)c1

6 structures already listed, arranged by formula weight, highest first.
MgrA DNA FP	S aureus helic	Structure
·	0.0	O=C(Cn1cnc2onc(-c3ccc(F)cc3)c2c1=O)NC1CCN(Cc2ccccc2)CC1
2.2	·	O=[N+]([O-])c1cccc(-c2cc(C(F)(F)F)n3nc(C4CC4)cc3n2)c1
·	21.0	CCc1noc(C)c1C(=O)OCC(=O)Nc1ccc(NC(C)=O)cc1
-1.6	-3.0	COC(=O)Cn1c2ccc(Cl)cc2c2nc3ccccc3nc21
5.8	1.0	O=C1c2ccccc2-c2nc3ccccc3c(=O)n21
2.1	3.0	N#CCC(=O)N/N=C/c1cc2ccccc2[nH]1

Remaining list, next part:
MgrA DNA FP	S aureus helic	Structure
·	5.0	CCOC(=O)c1[nH]c2ccccc2c1NC(=O)c1ccc(N2C(=O)CCC2=O)cc1
2.1	7.0	CCc1ccc(-n2c(SCC(=O)NCC(C)C)nnc2-c2ccncc2)cc1
-0.9	12.0	O=C(Nc1ccccc1)c1nnn(Cc2ccccc2)c1NC(=O)C(F)(F)F
2.9	8.0	CC1CCCN(C(=O)CCS(=O)(=O)c2cc(Br)cc3c2N(C(=O)C2CC2)CC3)C1 (stereo not drawn)
4.0	·	N#Cc1ccc(NC(=O)CSc2nc3ccccc3[nH]2)cc1
·	-5.0	Cc1noc(C)c1COc1ccc(C(=O)OCC(=O)N(C)C2(C#N)CCCCC2)cc1
·	5.0	O=C(NCCCN1CCOCC1)c1ccc(CS(=O)c2ccccc2)o1 (stereo not drawn)
-2.9	-4.0	Cc1ccc(-c2noc(CN(C(=O)NC3CCCCC3)C(C)C)n2)cc1
·	-7.0	CCOC(=O)Cc1csc(SCC(=O)N2CC(=O)Nc3ccccc32)n1
-0.4	6.0	Cc1ccc(NC(=O)C(C)Sc2nc(N)cc(N)n2)c(C)c1 (stereo not drawn)
2.9	·	COc1cc(C(=O)NN(C)C)cc(OC)c1OC
-0.7	·	O=S(=O)(Nc1cc(C(F)(F)F)cc(C(F)(F)F)c1)c1ccccn1
1.4	7.0	Cc1cc(C)cc(Oc2coc3c(CN4CCCCCC4)c(O)ccc3c2=O)c1
·	-4.0	CCOC(=O)c1cc(=O)[nH]c2ccccc12
·	-15.0	NNC(=S)NC1CC2CCC1C2 (stereo not drawn)
-2.1	·	COC(=O)c1c(C)noc1-c1ccc(Cl)cc1
-0.8	4.0	CCCC(C)NS(=O)(=O)c1ccccc1 (stereo not drawn)
-1.9	·	O=C(Cc1cccc2ccccc12)NCc1cccs1
·	-36.0	Cc1cccc(OCC(=O)Nc2ccccc2C(=O)N2CCOCC2)c1
·	-9.0	Cc1nn(Cc2ccccc2Cl)c2sc(C(=O)NCCCn3ccnc3)cc12
-1.6	12.0	NC(N)=NCCn1ccc2ccccc21
·	26.0	CCN(CC)C(=O)c1ccc(NS(=O)(=O)CC)cc1
·	17.0	O=C1CCC2(C(=O)O)c3[nH]c4ccccc4c3CCN12 (stereo not drawn)
6.2	-19.0	CCOC(=O)C1=C(c2ccccc2)N=c2s/c(=C\c3ccco3)c(=O)n2C1c1cccc(OC)c1 (stereo not drawn)
-1.1	-9.0	Cc1csc(NC(=O)C(C)Oc2ccccc2)n1 (stereo not drawn)
2.8	·	O=S(=O)(NC(=NCCc1ccccn1)Nc1cccc(Cl)c1)c1ccccc1
-2.0	13.0	CCOc1ccc2nc(SCc3c[nH]c4ccccc34)sc2c1
·	14.0	S=C(NN=C1CCCCCC1)Nc1ccccc1
·	11.0	CCC(C)Sc1ncnc2sccc12 (stereo not drawn)
-1.9	·	N#CCCn1nc(-c2ccccc2)cc1N
2.1	-12.0	Cc1c(N=CN2CCOCC2)c(=O)n(C)c(=O)n1C
0.1	·	CCCOc1ccccc1/C=N/NC(=S)Nc1ccc(F)cc1
·	-23.0	O=S(=O)(c1cccc2nonc12)N1CCC(n2cccc2)CC1
·	5.0	Cc1noc(C)c1CSc1ncccc1C(=O)N1CCCC1c1cccs1 (stereo not drawn)
0.2	-3.0	Cn1nc(-c2ccc(C(=O)N3CCCCC3)cc2)c2ccccc2c1=O
·	-17.0	CCCCN(C(=O)c1nn(C)c2c1CSc1ccccc1-2)C1CCN(C(C)=O)CC1
·	-30.0	O=C(NCCCN1CCCC1)C(Cc1ccccc1)N1Cc2ccccc2C1=O (stereo not drawn)
1.1	4.0	CC(C)Oc1cccc(OCCn2cnc3ccccc32)c1
·	10.0	CS(=O)(=O)c1nc2ccccc2n1Cc1cccc2ccccc12
2.6	6.0	Cn1c(NC(=O)/C=C/c2ccccc2)cc(=O)n(C)c1=O
·	-13.0	CC(=O)Nc1c2c(nn1-c1ccccc1)CS(=O)(=O)C2
·	-13.0	Cc1nc2ccc(NC(=O)/C=C/C(=O)O)cc2s1
1.6	-18.0	O=C(NC1=NCCS1)c1sc2cc(F)ccc2c1Cl
-2.9	6.0	O=C(NCCN1CCOCC1)c1cccc2ccccc12
·	4.0	COc1ccc(CNC(=O)c2cccnc2SC)cc1OC
2.1	13.0	CCCCN(CC)C(=O)c1ccccc1Oc1ccccc1
-1.2	9.0	c1ccc2c(c1)COC(CCN1CCN(CCC3OCc4ccccc4CO3)CC1)OC2
1.8	·	CCOC(=O)C1CCN(c2ncnc3cc(OC)c(OC)cc23)CC1
-1.9	·	S=C(NCCc1ccccc1)N/N=C/c1ccc2c(c1)OCO2
·	-6.0	COc1cc2c(cc1OC)CN(C1CC(=O)N(CCc3ccccc3)C1=O)CC2 (stereo not drawn)

Later entries.
MgrA DNA FP	S aureus helic	Structure
·	-3.0	Cn1cccc1/C=C/C(=O)OCc1ccccc1C#N
·	5.0	O=C1CCCc2cc(S(=O)(=O)Nc3ccccc3)ccc2N1
-1.8	·	CNc1[nH]c(=S)nc2sc3c(c12)CCCC3
·	6.0	CCCn1ccc2c(OCc3ccccn3)cccc2c1=O
·	-7.0	CCN(CC)C(=O)c1nn(C)c2c1CSc1ccccc1-2
·	-12.0	CC1=C(C(=O)N(CC(=O)NCc2ccco2)c2ccc(Cl)cc2)SCCO1
-2.4	·	COCc1cc(=O)[nH]c(SC)n1
·	-1.0	Clc1ccc(Cl)c(Nc2nc3cc(Cl)ccc3o2)c1
-2.2	·	N#CCC(=O)N1CCSCC1
-3.1	10.0	CCc1c(C)nc2cc(-c3ccccc3)[nH]n2c1=O
2.5	·	N#CCSc1nsc(SCC#N)c1C#N
·	5.0	CC1(C)Cc2c(sc3nc(-c4ccccc4)[nH]c(=O)c23)CO1
·	19.0	O=C(O)C1CCCN1S(=O)(=O)c1ccc(Cl)cc1 (stereo not drawn)
-0.8	10.0	COc1cc(CCC(=O)NCc2ccccc2)cc(OC)c1OC
-2.5	-6.0	CCCc1cc(=O)n2[nH]c(C(=O)N3CCC(C)CC3)nc2n1
0.9	12.0	CCOC(=O)c1c(C)nc2ccccc2c1C(=O)O
4.0	-8.0	C/C(CC12CC3CC(CC(C3)C1)C2)=N/O
-2.4	8.0	CCc1cccc2c(=O)c(C(=O)N3CCCCC3)c[nH]c12
3.5	10.0	O=C(Nc1ccc(Oc2ccccc2)cc1)C1c2ccccc2Oc2ccccc21
·	11.0	N/C(=N\OC(=O)C1CCCS1)c1ccc(C(F)(F)F)cc1 (stereo not drawn)
-1.2	2.0	CC(=O)Nc1nc(C(=O)O)cs1
-1.8	23.0	O=C(c1c(Cl)nc2sccn12)N1CCOCC1
-2.6	0.0	CCN(C(C)=O)c1nc2c3ccccc3n(C(C)=O)c2s1
-0.4	11.0	S=C(NCC1CCCO1)N1CCN(Cc2ccccc2Cl)CC1 (stereo not drawn)
·	-14.0	COc1ccc(C(=O)Nc2ccc(N3CCN(c4ncccc4C(F)(F)F)CC3)nc2)cc1
·	-1.0	Cc1noc2ncnc(N3CCC(C(=O)N4CCc5ccccc54)CC3)c12
·	6.0	O=c1cc(Nc2ccc3c(c2)OCO3)[nH]c(=O)n1Cc1ccc(F)cc1
-4.9	6.0	Cc1ccc(C(=O)Nc2nccs2)c(C)c1
0.1	-14.0	Cc1cc(C)nc(SCC(=O)c2ccccc2)n1
·	4.0	O=C(CC1SC(=O)N(Cc2ccc(Cl)cc2)C1=O)Nc1nccs1 (stereo not drawn)
0.5	9.0	O=C(COc1ccccc1)NCC(=O)Nc1nc(CC23CC4CC(CC(C4)C2)C3)cs1
-0.7	·	CN(C(Cc1ccc(OS(=O)(=O)c2cccc3cnccc23)cc1)C(=O)N1CCN(c2ccccc2)CC1)S(=O)(=O)c1cccc2cnccc12 (stereo not drawn)
0.5	·	Cc1cc(NC(=S)NC(C)(C)C)ccc1Br
·	14.0	Oc1ccccc1N1CCN(c2nc(-c3cccs3)nc3ccccc23)CC1
·	-2.0	CCOC(=O)c1c(NC(=O)COC(=O)Cn2cnc3ccccc32)sc(C)c1C
1.3	-3.0	COC(=O)c1ccc2c(c1)CN(c1ccc(Br)cc1)C2
-1.5	·	CCOC(=O)C1=C(C)N=c2s/c(=C\c3cc(Br)c(O)c(OC)c3)c(=O)n2C1c1cccs1 (stereo not drawn)
-1.2	10.0	COC(=O)c1c(C)c(C)c(C(=O)OC)c(C)c1C
·	-13.0	Cc1ccc(C)c(Cn2c3ccccc3c3cnn(CC(=O)NCCCN4CCOCC4)c(=O)c32)c1
1.8	0.0	COc1ccc(C2N=C(N3CCc4ccccc43)SC(N)=C2C#N)cc1 (stereo not drawn)
·	1.0	CCSc1nnc(SCC(=O)c2ccc3[nH]c(=O)[nH]c3c2)s1
·	7.0	CC1(C)CC(=O)C=C(NNC(=O)C23CC4CC(CC(C4)C2)C3)C1
-0.4	·	CCN1C(=O)/C(=c2\sc3n(c2=O)C(c2ccccc2)C(C(=O)OC)=C(C)N=3)c2ccccc21 (stereo not drawn)
·	-12.0	CCNC(=S)N/N=C1\CCCCC1C (stereo not drawn)
-2.5	3.0	CC(=NCCc1cnc[nH]1)c1c(C)[nH]n(-c2ccc(F)cc2)c1=O
-3.0	·	N#C/C(=N/O)S(=O)(=O)c1ccccn1
-7.8	6.0	CC(C)CCNC(=O)c1ccc2c(=O)n(Cc3ccc(Cl)cc3)c(=S)[nH]c2c1
·	-2.0	NCCNC(=S)Nc1ccccc1
·	-19.0	CCN1CCSc2ccc(C(=O)NCc3ccccc3)cc21
-1.5	·	CCOC(=O)C1(C(=O)OCC)CCC(=NO)CC1

Next section:
MgrA DNA FP	S aureus helic	Structure
1.7	5.0	CC(C)(C)OC(=O)C[n+]1ccc(C(N)=O)cc1
·	1.0	CN1C(=S)N(C2CC2)C(=O)/C1=C\c1ccc(OC(F)F)cc1
·	11.0	CC1CCN(c2nc(-c3ccccc3)cs2)CC1
·	3.0	CC(=O)N1CCN=C1SCc1ccc(C(F)(F)F)cc1
·	9.0	COC(=O)c1cc2sccc2n1CC(=O)Nc1ccc(OC)c(OC)c1OC
1.9	-2.0	CCCNC(=O)N(C)Cc1ccccc1
·	10.0	CC(C)C(=O)Nc1c(C(=O)N2CCCCCC2)oc2ccccc12
1.1	6.0	Cc1ccc(SCC(C)CNC(=O)Nc2ccccc2)cc1 (stereo not drawn)
·	10.0	c1ccc(-c2nc(-c3ccc4c(c3)OCO4)cs2)cc1
-0.6	·	Brc1ccc(-c2csnn2)cc1

Compound profiles, as listed above.
Profile of Cc1ccc(SCC(C)CNC(=O)Nc2ccccc2)cc1 (stereo not drawn) : MgrA DNA FP = 1.1; S aureus helic = 6.0
Profile of CC(C)C(=O)Nc1c(C(=O)N2CCCCCC2)oc2ccccc12 : MgrA DNA FP = ·; S aureus helic = 10.0
Profile of CCCNC(=O)N(C)Cc1ccccc1 : MgrA DNA FP = 1.9; S aureus helic = -2.0

Compound activity: PubChem, ICCB-Longwood Screening Facility, Harvard Medical School
